# RecA splice inh = inhibitors of M. tuberculosis RecA intein splicing | P9WHJ3 | cell-free RecA intein splicing, fluorescence | inhibition, %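 (about 9 µM by stock and volumes)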 | 0.75% of 290,000 active; in the data active = inhibition above about 30%; inconclusive = no clear call, values can overlap the other calls;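 also: 0% = vehicle wells and 100% = reference inhibitor control wells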
# Target sequence (P9WHJ3 whole entry, looked up, canonical isoform): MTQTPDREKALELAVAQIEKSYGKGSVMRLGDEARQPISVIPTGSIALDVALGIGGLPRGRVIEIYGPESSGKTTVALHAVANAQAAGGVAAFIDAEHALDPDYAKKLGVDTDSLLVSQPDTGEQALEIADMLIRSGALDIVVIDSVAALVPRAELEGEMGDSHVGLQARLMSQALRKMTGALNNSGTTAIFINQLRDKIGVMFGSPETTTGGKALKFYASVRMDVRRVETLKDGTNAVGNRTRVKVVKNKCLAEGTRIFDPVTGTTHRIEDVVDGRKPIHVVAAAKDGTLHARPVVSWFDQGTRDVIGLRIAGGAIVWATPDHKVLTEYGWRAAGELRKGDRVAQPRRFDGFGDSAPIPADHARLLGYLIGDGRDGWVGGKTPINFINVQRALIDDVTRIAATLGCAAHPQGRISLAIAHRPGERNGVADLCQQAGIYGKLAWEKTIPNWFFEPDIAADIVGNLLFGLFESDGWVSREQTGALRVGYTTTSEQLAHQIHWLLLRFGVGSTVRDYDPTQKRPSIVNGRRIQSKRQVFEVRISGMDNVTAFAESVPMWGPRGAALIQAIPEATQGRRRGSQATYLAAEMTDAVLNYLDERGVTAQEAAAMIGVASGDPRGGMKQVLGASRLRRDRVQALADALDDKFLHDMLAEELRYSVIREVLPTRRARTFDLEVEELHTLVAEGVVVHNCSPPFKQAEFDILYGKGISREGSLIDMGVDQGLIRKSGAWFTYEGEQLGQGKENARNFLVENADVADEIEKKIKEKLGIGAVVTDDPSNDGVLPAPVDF
# Arbovirus inh = arbovirus infection inhibition. 0.37% of 200,000 active. AID 1251. arbovirus infection cell-based antiviral screen. inhibition, % at 10 µM;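 active = inhibition from about 30%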;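 also: bluetongue infection of BSR cells; cell survival read as ATP light after 72 h; 0% = infected wells without compound and 100% = uninfected wells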
# YopH PTP inh = blocks Yersinia enterocolitica YopH tyrosine phosphatase; fluorescence Ex485/Em525; inhibition, %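 (about 10 µM by stock and volumes)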; 0.16% of 140,000 active; AID 898;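 active = inhibition of 50% or more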;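 also: controls were vehicle for no effect and minimum signal wells for full effect; inactives centre near -20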
# Mtb bLac sens = beta-lactam sensitization of Mtb H37Rv; M. tuberculosis H37Rv growth with meropenem, percent inhibition; hits of this screen are not shown here; inhibition, % at 25 µM; 0.27% of 330,000 active;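 active = about 74% or more and at least 40 points above the plate without the antibiotic, then above 30% in a dose series; inconclusive = first-round hits that could not be retested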;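 also: growth measured after seven days incubation then overnight dye step; 0% = bacteria only wells and 100% = bacteria with antibiotic; twin plates without the antibiotic show which effects depend on it; some results filed as inactive read as strong as hits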
# Mtb H37Rv = M. tuberculosis H37Rv growth inhibitors, H37Rv strain (AID 1626); M. tuberculosis H37Rv growth inhibition; higher % means a stronger effect; one-dose inhibition, % at 10 µM; IC50 in µM for titrated hits; 0.95% of 220,000 active;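 active = confirmed in a dose series; inconclusive = inhibition above 80% but not taken into the dose series; inactive = below 80% or under 30% at every dose of the series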;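 also: bacteria incubated seven days before Alamar blue readout; 0% = bacteria only wells and 100% = bacteria with antibiotic wells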
# Arbovirus inh repeat = recorded beside Arbovirus inh, whose call it bears; inhibition, %; measured here: 10K subset replicate screen; many hits read low in the repeat;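 first of two repeat runs on a subset; 0% = infected and 100% = uninfected wells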
# * = called active by the depositor; ? = inconclusive; . = not tested or not shown. These rows are one share of the data; count on the stated rates, not on these rows.
SMILES,RecA splice inh,Arbovirus inh,YopH PTP inh,Mtb bLac sens,Mtb H37Rv,others
CC/C(=N\NC(=O)c1ccncc1)C12CC3CC(CC(C3)C1)C2,1.2,1,11,99,?,
O=c1ccc2cc(S(=O)(=O)N3CCN(c4ccccc4F)CC3)ccc2[nH]1,2.0,.,.,0,.,
O=C(COC(=O)CNC(=O)c1ccccc1F)NCCC1=CCCCC1,-1.3,-11,-23,-4,5%,
CN(CC(=O)O/N=C(\N)c1ccc(Br)cc1)S(=O)(=O)c1ccccc1,-1.2,.,.,-5,.,
Cc1nc2oc3c(=O)[nH]cnc3c2c2c1COC(C)(C)C2,2.2,.,.,-8,1%,
O=C(NCC1CCCO1)c1ccc(F)c2ccccc12 (stereo unspecified),0.3,.,.,6,.,
O=C(NCc1ccccn1)C1CCCN(Cc2cnn(-c3ccccc3)c2-n2cccc2)C1 (stereo unspecified),1.5,-1,-7,2,-4%,
CCOC(=O)c1sc(NC(=O)CN(CC(C)C)CC(C)C)c(C(=O)OCC)c1C,4.7,-4,-25,-5,-5%,
O=C(NC(=S)Nc1nc(-c2ccc([N+](=O)[O-])cc2)cs1)c1ccco1,-1.6,.,.,4,.,
O=c1c2c(nc(NCCO)n1CC1CCCCC1)-c1ccccc1CC21CCCC1,8.8,-40,-8,24,7%,

# Overlap with the part before: three compounds, then new ones.
SMILES,RecA splice inh,Arbovirus inh,YopH PTP inh,Mtb bLac sens,Mtb H37Rv,others
CCOC(=O)c1sc(NC(=O)CN(CC(C)C)CC(C)C)c(C(=O)OCC)c1C,4.7,-4,-25,-5,-5%,
O=C(NC(=S)Nc1nc(-c2ccc([N+](=O)[O-])cc2)cs1)c1ccco1,-1.6,.,.,4,.,
O=c1c2c(nc(NCCO)n1CC1CCCCC1)-c1ccccc1CC21CCCC1,8.8,-40,-8,24,7%,
NC(=O)C1CCN(c2nc(-c3ccccc3)nc3ccccc23)CC1,.,3,-1,3,-5%,
CCOC(=O)C1=C(O)/C(=C/c2cc(C)n(-c3ccccc3)c2C)N=C1C,1.8,.,.,3,8%,
COC(=O)Cc1nc2ccccc2[nH]1,.,-1,-31,37,-6%,
CCN(CC(=O)Nc1c(F)cccc1F)C(=O)C1Cc2ccccc2CN1S(=O)(=O)CC (stereo unspecified),-0.7,.,.,4,.,
Cc1ccc(C)c(N2CCN(C(=O)CCCOc3cc(=O)n(C)c4ccccc34)CC2)c1,5.4,-40,-28,67,11%,
CC(C)c1ccc(NC(=O)C2C3C=CC4(CN(CCCN5CCOCC5)C(=O)C24)O3)cc1 (stereo unspecified),0.7,5,-6,-1,-17%,
COc1ccc(NC(=O)COc2ccc(C(=O)OCC(=O)N(C)C3CCS(=O)(=O)C3)cc2OC)cc1 (stereo unspecified),-2.0,-2,.,1,-1%,
Cc1ccc(NC(=O)CCn2c(=S)oc3ccccc32)cc1F,0.3,.,.,8,.,
COc1ccc(/C=N/NC(=O)c2cccc([N+](=O)[O-])c2)c2ccccc12,0.7,.,.,8,.,
Cc1ccc(C)c(NC(=O)CCOc2ccccc2)c1,0.5,.,.,0,.,
COc1ccccc1Oc1ccc2c(c1)C(=O)N(c1ccc(C)cc1)C2=O,3.4,3,-16,-5,.,
Fc1cccc(Cl)c1CSc1ccc(-c2ccco2)nn1,18,0,.,-6,8%,
CC(C)(C)C1=NN(C(=O)c2ccccc2)C(O)(C(C)(C)C)C1 (stereo unspecified),-1.8,0,-42,6,9%,
CCOC(=O)C[N+]1(C)CCN(C(C)=O)CC1,1.7,14,.,-3,2%,
Cc1ccc(-c2nnc(SC(C)C#N)n2N)cc1 (stereo unspecified),.,-2,-20,7,-12%,
COCCn1c(SCC(=O)N2CCc3ccccc32)nc2c(c1=O)SC(C)C2 (stereo unspecified),-1.1,-6,.,-3,-4%,Arbovirus inh repeat=5
Cc1cc(C)n(-c2nc(C)nc3c2cnn3-c2ccccc2)n1,-0.4,1,-47,6,.,
CC(CC1CC(C)(C)OC1=O)C(=O)Nc1nncs1 (stereo unspecified),.,3,-6,-7,-11%,
O=C(CSc1n[nH]c(-c2ccco2)n1)Nc1ccccc1,0.1,.,.,-12,.,
O=C(O)c1cnn2c(C(F)F)cc(C3CC3)nc12,1.8,10,-12,0,4%,
Cc1cc(C)n(C(=O)CNC(=O)c2ccc(Cl)cc2Cl)n1,2.5,.,.,-11,.,
Cc1ccccc1OCC(=O)N/N=C/c1ccncc1,-1.8,-2,-25,62,8%,
Cc1cc(NC(=O)c2cc(Cl)ccc2Cl)no1,1.8,3,-26,5,-2%,
Cc1ccc(C)c(N2CCN(C(=O)c3ccc(N4CCCC4=O)cc3)CC2)c1,-1.8,.,.,6,.,
CCC(=O)Nc1ccc(C(=O)Cn2ncc(Cl)c(Cl)c2=O)cc1,8.3,.,.,-4,15%,
Cc1ccccc1C1NC(=S)NC2=C1C(=O)CCC2 (stereo unspecified),3.8,-4,.,-2,0%,
Cc1ccc(CC2C(=O)N(c3ncccn3)C(=O)C2C)cc1 (stereo unspecified),-2.6,0,-57,-5,-1%,Arbovirus inh repeat=6
c1ccc2c(c1)OCC(CNCC1COc3ccccc3O1)O2 (stereo unspecified),-3.2,.,.,-2,.,
COC(=O)[C@@]12CCCCN1[C@H](c1ccc(-c3cccc(Cl)c3)cc1)[C@H]1C(=O)N(C)C(=O)[C@H]12,5.9,.,.,0,.,
O=C(Nc1ccc(-c2ccc3nncn3n2)cc1)c1ccc(Br)o1,-1.1,13,.,3,4%,
Nc1cnc(Nc2ccc(Br)cc2)nc1N,5.0,.,.,97,0%,
Cc1cccc(N(C(=O)c2sc(C)nc2C)C(C(=O)NCC2CCCO2)c2ccccc2)c1 (stereo unspecified),3.7,.,.,9,.,
Fc1ccccc1Cn1nnc2c(NCc3ccccn3)ncnc21,1.9,-3,-21,-16,-9%,
Cc1ccc(-c2nc(CS(=O)CC(=O)NC3CCCC(C)C3C)c(C)o2)cc1 (stereo unspecified),-7.8,.,.,0,.,
CCN(CC)S(=O)(=O)c1cccc(C(=O)OCC(=O)Nc2ccccc2OC(F)F)c1,-1.8,4,-12,-1,-5%,
COc1ccccc1-n1c(SCC(=O)Nc2nnc(C)s2)nc2c(c1=O)SCC2,0.5,0,-15,?,4%,Arbovirus inh repeat=-5
NC(=O)/C(=C\c1ccccc1)NC(=O)/C=C/c1ccccc1,-0.4,-2,14,-5,-3%,
CC1=C(C(=O)Nc2cccc(C)c2C)C(c2cccs2)NC(=S)N1 (stereo unspecified),2.2,-1,-29,-8,6%,
CCn1c(SCC(=O)N/N=C/c2ccccc2OCC(=O)O)nnc1-c1ccc(C)cc1,-1.2,.,.,-2,-14%,
CCCCCCCCN1[C@@H](CC(=O)OC)c2cc(C(F)(F)F)ccc2S1(=O)=O,4.1,.,.,-5,5%,
COc1c(S(=O)(=O)N2CCN(C)CC2)ccc(Cl)c1Cl,3.4,.,.,-6,.,
CC(C)n1c(O)c(C=NCc2cccnc2)c(=O)[nH]c1=S,-0.6,.,.,1,-1%,
COc1cc(OC)cc(C(=O)OCC(=O)Nc2ccc(N3CCCCC3)cc2)c1,-0.3,17,-9,-1,2%,
CC(=O)Nc1ccc(S(=O)(=O)NNC(=O)COc2cccc(C)c2)cc1,-7.9,-2,-29,-12,-14%,
CN(C)c1ccc(C2SCCN2C(=O)c2ccc([N+](=O)[O-])cc2)cc1 (stereo unspecified),6.0,-1,2,2,-7%,
C=CCSc1cc(C)nc2c(-c3ccc(Cl)cc3)c(C)nn12,.,-16,0,12,-2%,
Cn1cc(/C=C(\NC(=O)c2ccccc2Cl)C(=O)N2CCOCC2)c2ccccc21,-1.1,.,.,-8,.,
NC(=O)C1CCN(C(=O)CSCc2ccccc2Cl)CC1,1.4,-1,-42,-11,-3%,
O=c1[nH]ncn2cccc12,0.5,3,-33,-2,-5%,
CCCC(=O)Nc1nnc(-c2ccc3c(c2)OCO3)s1,-0.2,.,.,-4,-10%,
# Later entries
SMILES,RecA splice inh,Arbovirus inh,YopH PTP inh,Mtb bLac sens,Mtb H37Rv,others
O=C(NCc1ccccc1)C1CCCN(c2nc3ccsc3c(=O)s2)C1 (stereo unspecified),-1.6,5,.,3,6%,
COc1cc2c(OC)cccc2cc1C(=O)O,0.6,6,-26,7,-6%,
CCOC(=O)C1CCCN(Cc2nc(C3CC3)no2)C1 (stereo unspecified),-4.4,.,.,-9,12%,
C=CCN(C(=O)c1csnn1)C(C(=O)NCc1ccc(F)cc1)c1ccccc1F (stereo unspecified),1.6,.,.,-2,.,
COCCNC(=S)NNc1ccccc1[N+](=O)[O-],1.1,-2,.,-2,-8%,
CC1CN(c2ccc([N+](=O)[O-])nc2)CC(C)O1 (stereo unspecified),1.9,18,.,5,-9%,
COc1ccc(C(C#N)Nc2ccccc2)cc1 (stereo unspecified),1.8,1,-14,-16,-10%,
CCO[C@H]1OC(C(N)=O)=C[C@@H](c2ccccc2)[C@@H]1CCCO,-0.3,6,.,-3,-15%,
Cc1ccccc1OCCN1CCCC1,-0.5,.,.,-2,.,
O=C(O)Cn1c2c(c3ccccc31)CSc1ccc(Cl)cc1-2,-2.5,.,.,2,.,
COc1c(C)cc(Br)cc1C(=O)Nc1ccc(C)cc1[N+](=O)[O-],-1.9,-6,-35,-2,-10%,
N#CC1=C(SCC(=O)c2ccc(Cl)cc2)NC2=C(C(=O)CCC2)C1c1ccco1 (stereo unspecified),3.7,-25,.,98,73%,
Cn1cc(C(=O)NC2CCCCC2)c(=O)c2cc(S(=O)(=O)N3CCCC3)ccc21,-1.7,-1,-3,4,-8%,
O=C(CCS(=O)(=O)Cc1ccc(Cl)cc1)NCCc1ccccc1,0.2,-2,.,-7,2%,
CCCCN(CCCC)C(=O)CCS(=O)(=O)c1ccc2c(c1)n(C)c(=O)c(=O)n2C,4.2,7,-44,-11,1%,
O=C(CCS(=O)(=O)c1ccc(Br)s1)NCc1cccs1,-2.5,2,1,-9,-5%,
O=C(CCn1cccc1)NCc1ccc(Cl)cc1,-0.7,-7,4,6,3%,
CN(C)CCCN1C(=O)C(O)=C(C(=O)c2cc3ccccc3o2)C1c1ccccc1 (stereo unspecified),-2.1,-7,-15,16,.,
COc1ccc(CCn2c(N)c(C(=O)NCc3ccco3)c3nc4ccccc4nc32)cc1,-303,-12,-18,5,11%,
CC(CCc1ccccc1)NC(=O)CN(C)Cc1ccc(F)cc1 (stereo unspecified),1.7,.,.,1,.,

# Overlap with the part before: 5 compounds; new compounds follow.
SMILES,RecA splice inh,Arbovirus inh,YopH PTP inh,Mtb bLac sens,Mtb H37Rv,others
O=C(CCS(=O)(=O)c1ccc(Br)s1)NCc1cccs1,-2.5,2,1,-9,-5%,
O=C(CCn1cccc1)NCc1ccc(Cl)cc1,-0.7,-7,4,6,3%,
CN(C)CCCN1C(=O)C(O)=C(C(=O)c2cc3ccccc3o2)C1c1ccccc1 (stereo unspecified),-2.1,-7,-15,16,.,
COc1ccc(CCn2c(N)c(C(=O)NCc3ccco3)c3nc4ccccc4nc32)cc1,-303,-12,-18,5,11%,
CC(CCc1ccccc1)NC(=O)CN(C)Cc1ccc(F)cc1 (stereo unspecified),1.7,.,.,1,.,
CCOC(=O)C1CCCN(C2=NC(=O)/C(=C/c3ccc(OC)cc3)S2)C1 (stereo unspecified),2.1,.,.,0,.,
Cc1nc2c(C)cccc2c2c1CCN2c1ccccc1F,-23,.,.,-6,0%,
Cc1ccc(N=Nc2c(O)[nH]c(=O)[nH]c2=O)c([N+](=O)[O-])c1,19,7,-20,-9,-8%,
COc1cccc(N2CCN(c3ccc4nnc(CCC(=O)N5CCC(C)CC5)n4n3)CC2)c1,-1.0,.,.,3,.,
COc1cc(NC(=O)[C@H]2CSCN2C(=O)[C@@H]2CCC(=O)N2)cc(OC)c1OC,-1.8,.,.,-6,.,
CCOC(=O)CN(C(=O)CNC(=O)c1ccco1)C(C(=O)NC1CCCCC1)c1cccc(OC)c1 (stereo unspecified),2.1,5,.,-4,-3%,
CCCCC(=O)Nc1ccc(C(=O)Nc2ccc3c(c2)OCO3)cc1,0.8,-28,-9,5,11%,
NC(=O)C1CCN(C(=O)CCSCc2ccccc2)CC1,2.3,.,.,-6,.,
COCCN(C(=O)COC(=O)CCOc1ccccc1)c1c(N)n(Cc2ccccc2)c(=O)[nH]c1=O,0.0,.,.,-4,.,
O=C(Nc1cccc(Cl)c1)NC1CC2CCC(C1)N2Cc1cccs1 (stereo unspecified),1.1,-9,.,1,-5%,
CCOC(=O)C(C(=O)OCC)C1CCS(=O)(=O)C1 (stereo unspecified),-2.1,0,-19,-3,-4%,
CC1CC(C)(C)CC2(C1)NC(=O)N(CC(=O)NCC(c1ccco1)N1CCCCC1)C2=O (stereo unspecified),.,4,-38,-8,-1%,
COc1ccccc1NC(=O)C1=C(C)NC(=O)NC1c1ccc(C)cc1 (stereo unspecified),.,0,-18,2,11%,Arbovirus inh repeat=-2

# Bioassay records from PubChem.
